NS1 inh = qHTS Assay for Inhibitors of Influenza NS1 Protein Function. Potency, µM (doses to about 46.1 µM), without a hit: top-dose activity, positive = more growth. AID 2326, 2010. 270,000 compounds, 0.4% hits. S. cerevisiae slowed by influenza A NS1, growth recovery by OD600; also: actives are rising curves; nearly all actives have a fitted effect of over 50% in size
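Recovery from NS1-induced slow growth read by OD600 in budding yeast switched to galactose assay medium (pH 6.0, -URA) at 1:100 dilution. Compound 23 nl per well; the matching strain lacking NS1 serves as control.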
LASV entry inh = qHTS for Inhibitors of binding or entry into cells for Lassa Virus; AID 540256, 2011; Potency, µM (doses to about 37.9 µM), for the others: at the top dose activity change, negative = inhibition, most hits filed as inhibitors; Lassa virus pseudotype entry inhibition, cell reporter; control for the full effect not named in the record; 300,000 compounds, 1.2% hits; active means well fitted inhibition curve with a large enough effect; inconclusive means small, poorly fitted or top-dose-only effect, or effect the other way; inactive means flat fitted curve, though single readings scatter; tested in HEK293 cells; also: % is scaled to controls: 0 for no effect and ±100 for the full control effect; nearly all actives have a fitted effect of over 50% in size; luciferase read-out
RE007 growth inh = qHTS Assay for Inhibitors of the HIV-1 protein Vpr; S. pombe RE007 Vpr strain, BacTiter-Glo ATP luminescence, 24 h; control for the full effect not named in the record; Potency, µM (series often up to 92.2 µM), for the others: at the highest dose activity change, negative = less growth; 360,000 compounds, 0.21% hits; AID 651644, 2012; active = well fitted falling curve with a large enough effect; inconclusive = small, poorly fitted or top-dose-only effect; inactive = no such curve, though single readings can be large or run the other way;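 also: % is scaled to controls: 0 for no effect and ±100 for the full control effect; nearly all actives have a fitted effect of over 50% in size; the assay follows cell death caused by Vpr and the record does not say whether a fall means rescue or toxicity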
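Fission yeast strain RE007, carrying one chromosomally integrated HIV-1 vpr copy, was seeded at OD 0.01 in PMG+AL medium with 23 nL pinned compound. After 24 h at 30 °C and 99% humidity, viability was read by BacTiter-Glo luminescence.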
Cruzain Triton = qHTS Assay for Promiscuous and Specific Inhibitors of Cruzain (with detergent) | Cruzipain (Trypanosoma cruzi), P25779 | purified cruzain, Z-FR-AMC fluorescence, 0.01% Triton | 200,000 compounds, 0.43% hits | Potency, µM, without a hit: max response, negative = inhibition, most hits filed as inhibitors | AID 1478, 2009; active = well fitted curve in the direction sought with a large enough effect; inconclusive = small, poorly fitted or top-dose-only effect, or another doubt; inactive = no such curve, though single readings can be large; an effect the other way counts as inactive or inconclusive;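 also: plate controls were neutral wells for no effect and buffer without enzyme for full effect; nearly all actives have a fitted effect of over 40% in size; top concentration of the series not given in the record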
Target sequence (P25779 123-467 limits assumed): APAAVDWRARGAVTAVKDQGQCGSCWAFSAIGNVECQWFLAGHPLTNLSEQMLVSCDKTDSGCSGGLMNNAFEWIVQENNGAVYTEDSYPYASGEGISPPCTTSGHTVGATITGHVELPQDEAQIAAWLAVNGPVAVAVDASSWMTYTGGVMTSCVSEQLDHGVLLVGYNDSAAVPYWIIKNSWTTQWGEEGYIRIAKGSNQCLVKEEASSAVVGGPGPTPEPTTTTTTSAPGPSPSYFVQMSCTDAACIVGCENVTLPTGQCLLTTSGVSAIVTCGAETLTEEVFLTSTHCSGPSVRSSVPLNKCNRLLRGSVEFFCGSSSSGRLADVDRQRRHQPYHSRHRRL
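Cruzain (1.5 nM) preincubated 15 min at RT with compound in 100 mM sodium acetate pH 5.5, 5 mM DTT, 0.01% Triton X-100. Reaction started with 2 uM Z-FR-AMC; AMC fluorescence (ex 360/em 450 nm) change over 60 s gave rate.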
SARS PLP yeast = qHTS of Yeast-based Assay for SARS-CoV PLP; S. cerevisiae expressing SARS-CoV PLpro, growth rescue; control for the full effect not named in the record; Potency, µM (titrated, usually from 32.9 µM), without a hit: top-dose activity, positive = growth rescue; 330,000 compounds, 0.19% hits; also: 0% is about no effect; nearly all actives have a fitted effect of over 55% in size; growth read by luminescence after 48 h
Cruzain noTriton = qHTS Assay for Promiscuous and Specific Inhibitors of Cruzain (without detergent); Cruzipain (Trypanosoma cruzi), P25779; Potency, µM, inactives show max response, negative = inhibition, actives largely listed as inhibitors; AID 1476, 2009; 200,000 compounds, 2.3% hits; purified cruzain, Z-FR-AMC fluorescence, no detergent; active = well fitted curve in the direction sought with a large enough effect; inconclusive = small, poorly fitted or top-dose-only effect, or another doubt; inactive = no such curve, though single readings can be large; an effect the other way counts as inactive or inconclusive;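 also: plate controls were enzyme without inhibitor for no effect and buffer without enzyme for full effect; nearly all actives have a fitted effect of over 40% in size; top concentration of the series not given in the record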
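Detergent-free condition (0.00005% Triton X-100) in acetate buffer pH 5.5 with DTT. 1.5 nM enzyme and compound were pre-mixed 15 min, then 2 uM Z-FR-AMC substrate added; reaction progress from fluorescence change between first and third reads (60 s).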
StopGo reporter = High Throughput Screening for Foot and Mouth Disease Virus Antivirals; 410,000 compounds, 1.2% hits; human cells with a luciferase reporter of 2A StopGo recoding; control for the full effect not named in the record; Potency, µM (series often up to 57.9 µM), inactives show at the top dose signal change, negative = less light; active = well fitted falling curve with a large enough effect; inconclusive = small, poorly fitted or top-dose-only effect; inactive = no such curve, though single readings can be large or run the other way; tested in HEK293T cells; also: % is scaled to controls: 0 for no effect and ±100 for the full control effect; nearly all actives have a fitted effect of over 45% in size; luciferase light after 4 h
Marburg entry inh = qHTS for inhibitors of binding or entry into cells for Marburg Virus. Potency, µM (titrated, usually from 37.8 µM), without a hit: at the highest dose activity change, negative = inhibition, most hits filed as inhibitors. Marburg virus pseudotyped entry inhibition, cell reporter; control for the full effect not named in the record; about a third of the inactives were read at about 46 µM. AID 540276, 2011. 300,000 compounds, 1.8% hits; active = well fitted inhibition curve with a large enough effect; inconclusive = small, poorly fitted or top-dose-only effect, or effect the other way; inactive = flat fitted curve, though single readings scatter; tested in HEK293 cells; about a fifth of its hits are not listed in these tables; also: % is scaled to controls: 0 for no effect and ±100 for the full control effect; luciferase read-out
* = called active by the depositor; [ ] = dose if it differs, or a comment. Unless noted, calls follow the shape of the dose curve; as a rule, active means well fitted rising curve with a large enough effect; inconclusive means small, poorly fitted or top-dose-only effect; inactive means no such curve, though single readings can be large or run the other way. Potency is read from the fitted curve at half-maximal effect. Not a hit list; about 4.7% have a hit in one of these screens.

CCOc1ccc(-c2ncncc2-c2ccccc2OC)c(O)c1 was read as NS1 inh 0.7%, LASV entry inh -0.8%[46.1 µM], RE007 growth inh 4.7%, SARS PLP yeast -0.8%, StopGo reporter -26.7% and Marburg entry inh inconclusive.
`O=C(CSc1nnc(CNC(=O)c2c(F)cccc2Cl)o1)NCc1ccccc1` gave NS1 inh 27.1%, LASV entry inh -12.9%[46.1 µM], RE007 growth inh 2.2%, SARS PLP yeast 1.7%, StopGo reporter 16.9% and Marburg entry inh -17.5%[46.1 µM].
O=C(c1ccccc1)N(C(=O)c1ccccc1)N1CCCC1 was read as LASV entry inh 14.2%[46.1 µM], RE007 growth inh 7.2%, StopGo reporter -7.4% and Marburg entry inh -29.6%[46.1 µM].
For Cn1cc(-c2cc3n(n2)CCC(=O)N3CCCC(=O)Nc2ccc(F)cc2F)c2ccccc21 the results were LASV entry inh -14.7%[46.1 µM], Cruzain Triton -3.0%, Cruzain noTriton inconclusive and StopGo reporter -22.6%.
Screening CC(C)(C)c1nc[nH]c(=O)c1Br returned NS1 inh 0.2%, LASV entry inh 0.8%, RE007 growth inh -5.3%, Cruzain Triton -0.3%, SARS PLP yeast -11.6%, Cruzain noTriton -6.2%, StopGo reporter -6.4% and Marburg entry inh 8.3%.
Screening CCCn1c(=O)c2c(C(F)(F)F)cc(-c3cccs3)nc2n(CCC)c1=O returned NS1 inh -7.3%, LASV entry inh -4.3%, RE007 growth inh 3.8%, Cruzain Triton 2.0%, SARS PLP yeast 5.8%, Cruzain noTriton 6.31µM*, StopGo reporter -15.8% and Marburg entry inh 21.4%.
Screening CCCC1=NN(c2ccc([N+](=O)[O-])cc2)C(=O)/C1=C\N(C)C returned NS1 inh 0.6%, LASV entry inh 9.5%, RE007 growth inh 2.0%, Cruzain Triton -9.8%, SARS PLP yeast 22.1%, Cruzain noTriton 0.3%, StopGo reporter -3.9% and Marburg entry inh 8.3%.
For CC(C)(C)NC(=O)C(=O)NNC(=O)c1ccc(C(C)(C)C)cc1 the results were NS1 inh -14.2%, LASV entry inh -8.7%, RE007 growth inh 4.7%, Cruzain Triton -0.1%, SARS PLP yeast -7.8%, Cruzain noTriton 0.0%, StopGo reporter inconclusive and Marburg entry inh -26.8%.
For Cc1ccc(OCCn2cc(Br)c(=O)[nH]c2=O)cc1 the results were NS1 inh 8.5%, LASV entry inh 3.6%, RE007 growth inh 29.1%, Cruzain Triton 7.3%, SARS PLP yeast -1.1%, Cruzain noTriton 7.8%, StopGo reporter -4.3% and Marburg entry inh 6.9%[46.1 µM].
Screening Cc1ccccc1NC(=O)N(O)C1(C#N)CCCCC1 returned LASV entry inh 17.4%[46.1 µM], RE007 growth inh 5.7%, StopGo reporter -11.5% and Marburg entry inh -0.8%.
Screening CCc1ccc(N2C(=O)CC(Cn3nc(C)cc3C)C2=O)cc1 (stereo unspecified) returned NS1 inh -0.2%, RE007 growth inh 5.1%, SARS PLP yeast 1.5% and StopGo reporter 0.2%.
For CCc1ccc(-n2c(SCc3cc(=O)n4cc(Br)ccc4n3)nc3[nH]ncc3c2=O)cc1 the results were LASV entry inh inconclusive, RE007 growth inh 11.9%, SARS PLP yeast -7.7%, StopGo reporter 31.6µM* and Marburg entry inh inconclusive.
O=S(=O)(NC1CCCCC1N1CCN(c2ccccc2F)CC1)c1ccc(Cl)cc1 (stereo unspecified) was read as NS1 inh -4.3%, LASV entry inh -18.6%[46.1 µM], RE007 growth inh -13.2%, SARS PLP yeast 4.5%, StopGo reporter -21.6% and Marburg entry inh inconclusive.
For CC(C)CNC(=O)c1cc([N+](=O)[O-])ccc1N1CCOCC1 the results were NS1 inh 2.1%, LASV entry inh 2.4%, Cruzain Triton -9.3%, SARS PLP yeast inconclusive, Cruzain noTriton -12.9%, StopGo reporter -17.2% and Marburg entry inh 3.0%.
`COc1ccc(S(=O)(=O)N2CCOC23CCN(S(=O)(=O)c2ccc(C)cc2)CC3)cc1` gave LASV entry inh inconclusive, RE007 growth inh 4.6%, SARS PLP yeast 0.5%, StopGo reporter 35.7%[activator] and Marburg entry inh -10.9%.
Cc1ccc(Cn2c(=O)n(CC3CCC(C(=O)N4CCOCC4)CC3)c(=O)c3sccc32)cc1 (stereo unspecified) was read as LASV entry inh 5.6%[46.1 µM], Cruzain Triton -0.9%, Cruzain noTriton -0.2% and StopGo reporter inconclusive.
`Cc1ccc(Cl)cc1NC(=O)CCS(=O)(=O)c1cccc2nonc12` gave NS1 inh 2.9%, LASV entry inh 27.5%, RE007 growth inh 10.7%, SARS PLP yeast 1.2%, StopGo reporter 13.6% and Marburg entry inh 4.9%[46.1 µM].
CC(C)(C)C(=O)Nc1nnc(SCc2ccc(F)cc2)s1 was read as NS1 inh -0.2%, LASV entry inh 4.1%, RE007 growth inh 10.6%[3.69 µM], Cruzain Triton -5.4%, SARS PLP yeast -4.1%, Cruzain noTriton -3.3%, StopGo reporter 3.6% and Marburg entry inh 0.2%.
For CCOC(=O)Cn1nnc2c(sc3nc4c(c(-c5ccccc5)c32)CCC4)c1=O the results were NS1 inh -7.3%, LASV entry inh 1.4%, RE007 growth inh 1.9%, Cruzain Triton -2.1%, SARS PLP yeast -1.7%, Cruzain noTriton -7.6%, StopGo reporter inconclusive and Marburg entry inh 15.0%.
`COc1cccc(-n2ccnc2SCC(=O)Nc2cc(C)on2)c1` gave NS1 inh 4.0%, LASV entry inh 3.0%, RE007 growth inh 5.1%, SARS PLP yeast 0.7%, StopGo reporter -23.9% and Marburg entry inh 7.5%.
`CC(C)(C)OC(=O)NN=C(c1ccc(O)cc1)c1ccc(O)cc1` gave NS1 inh 7.0%, LASV entry inh -3.9%[46.1 µM], RE007 growth inh -0.5%, SARS PLP yeast -3.9%, StopGo reporter 9.7% and Marburg entry inh 0.3%[46.1 µM].
`CCN(CC)C(=O)/C=C/c1ccc(OC)c(S(=O)(=O)N2CCCCC2)c1` gave LASV entry inh -24.4%, RE007 growth inh 9.5%, SARS PLP yeast -4.2%, StopGo reporter 4.6% and Marburg entry inh 0.9%[46.1 µM].
`CCOc1ccc(CNc2cccc(SC)c2)cc1` gave NS1 inh -1.8%, LASV entry inh 7.7%, RE007 growth inh -12.1%, SARS PLP yeast -2.9%, StopGo reporter 4.3% and Marburg entry inh -10.2%[46.1 µM].
Screening COc1ccc(Nc2cc(C(=O)NCCCN3CCN(c4ccccc4F)CC3)c3ccccc3n2)c(OC)c1 returned LASV entry inh -26.5%[46.1 µM], Cruzain Triton -14.9%, Cruzain noTriton -13.8%, StopGo reporter -27.5% and Marburg entry inh -29.7%[46.1 µM].
For Cc1cccc(-n2c(=O)[nH]c3c(C(N)=O)nc(-c4ccccc4Cl)nc32)c1 the results were NS1 inh -35.9%, RE007 growth inh -5.0%, Cruzain Triton -3.6%, SARS PLP yeast -3.4%, Cruzain noTriton -6.1%, StopGo reporter inconclusive and Marburg entry inh 2.5%.
`CC1=CCC2COC(c3ccc[n+](Cc4ccccc4)c3)C1C2` (stereo unspecified) gave NS1 inh 0.8%, LASV entry inh -3.8%, RE007 growth inh -15.3%, Cruzain Triton 0.2%, SARS PLP yeast -6.7%, Cruzain noTriton 1.6%, StopGo reporter -19.0% and Marburg entry inh -3.0%.
For O=C(CN(C(=O)c1ccccc1)C(=O)c1ccccc1)OCc1ccccc1 the results were LASV entry inh -16.1%, RE007 growth inh -12.6%, StopGo reporter -22.3% and Marburg entry inh -27.8%.
`CCOC(=O)c1c[nH]c2c(C(F)(F)F)cccc2c1=O` gave NS1 inh 3.9%, LASV entry inh 0.8%, RE007 growth inh 0.7%, SARS PLP yeast 0.6%, StopGo reporter -16.1% and Marburg entry inh inconclusive.
For N#C/C(=C\c1ccc[nH]1)C(=O)NCC1CCCO1 (stereo unspecified) the results were NS1 inh -3.6%, LASV entry inh inconclusive, RE007 growth inh -9.9%, SARS PLP yeast -0.3%, StopGo reporter 53.8%[activator] and Marburg entry inh inconclusive.
Screening CCCCn1c(N)c(S(=O)(=O)c2ccc(C)cc2)c2nc3ccccc3nc21 returned NS1 inh inconclusive, LASV entry inh inconclusive, RE007 growth inh -17.1%, Cruzain Triton 3.8%, SARS PLP yeast 9.7%, Cruzain noTriton 26.3%, StopGo reporter 20.9% and Marburg entry inh 10µM*.
O=C(CCc1nc2ccccc2c(=O)[nH]1)N1CCCc2ccccc21 was read as LASV entry inh -0.8%, RE007 growth inh -2.1%, SARS PLP yeast 10.3%, StopGo reporter -8.3% and Marburg entry inh 8.6%[46.1 µM].
Screening Fc1ccc(Nc2c(-c3c[nH]c4ccccc34)nc3ccccn23)cc1 returned LASV entry inh 4.5%[46.1 µM], Cruzain Triton -13.0%, Cruzain noTriton 6.3%, StopGo reporter 11.0% and Marburg entry inh inconclusive.
`C=CCn1c(NCc2ccc(OC)cc2)nc2ccccc21` gave NS1 inh -13.1%, LASV entry inh 15.0%[46.1 µM], RE007 growth inh -22.4%, SARS PLP yeast -2.3%, StopGo reporter 30.1%[activator] and Marburg entry inh inconclusive.
`CC(C)(C)NC(=O)CSc1nnc(-c2ccncc2)n1Cc1ccccc1` gave NS1 inh inconclusive, LASV entry inh 0.5%, RE007 growth inh 9.2%, Cruzain Triton 4.9%, SARS PLP yeast 2.6%, Cruzain noTriton -2.1%, StopGo reporter 9.9% and Marburg entry inh -2.8%[46.1 µM].
`Cc1ccc(N2C(=O)[C@@H]3CSC(c4ccc(Cl)cc4)N3C2=O)cc1` (stereo partly specified) gave LASV entry inh 10.6%[46.1 µM], Cruzain Triton -4.3%, Cruzain noTriton 9.2%, StopGo reporter -7.1% and Marburg entry inh 16.4%[46.1 µM].
O=S(=O)(c1ccccc1)N(Cc1ccc(Cl)cc1)c1ccncc1 was read as NS1 inh -1.5%, LASV entry inh 5.8%, RE007 growth inh 26.0%, SARS PLP yeast -0.1%, StopGo reporter -15.4% and Marburg entry inh inconclusive.
`CCc1ccc2nc(N3CCN(C(=O)c4ccco4)CC3)sc2c1` gave LASV entry inh -1.1%[46.1 µM], Cruzain Triton -5.0%, Cruzain noTriton 10.7% and StopGo reporter 6.1%.

High-throughput results from PubChem BioAssay.
